# Compound activity: PubChem, several laboratories
# Ecoli rRNA inh – selective bacterial rRNA inhibition in E. coli; E. coli WT GFP vs humanized-ribosome RFP mutants, fluorescence, 24 h; hits give low values; DMSO median 0, no signal -100; GFP signal change (wild-type ribosome), % (no concentration beside the values); 350,000 compounds, 1.6% hits;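 active = significant combined selectivity score with lowered wild-type GFP, culture density cut under 30%, mutant RFP and density less affected; inactive = any of these conditions unmet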; also: one replicate is shown; some compounds called inactive have numbers as strong as hits
# HNF4A DNA FP – change in binding of human HNF4 alpha to DNA. HNF4a-FITC DNA binding, fluorescence polarization, 1 h. activity change, % at 10 µM. 360,000 compounds, 0.3% hits. AID 1224865; in the data active = activity change above about 30%, passing the limit was not always enough;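 also: controls were the assay level and a saturating level of protein; the project sought stronger binding though the title names inhibitors; some compounds called inactive have numbers as strong as hits; positive values seem to mean higher polarization but the record does not say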
# E coli growth – blocks Escherichia coli growth; OD600, 23 h; hits give low values; OD600 absorbance (no concentration beside the values); 330,000 compounds, 0.21% hits;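 active = OD600 absorbance below the run mean of sample wells minus 3.6 SD, in any replicate, cut at about 0.56 in these data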;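 also: stock transfer was 300 nL into about 60 µL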
# ALR inh – inhibitors of human sulfhydryl oxidase ALR; inhibition, % (concentration not given with the values); 290,000 compounds, 3.8% hits; purified ALR, DTT oxidation, H2O2 HRP-luminol luminescence;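 active = mean and each replicate at 75% or more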;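 also: stock transfer was 7.5 nL into about 7.5 µL; 0% = neutral wells and 100% = wells with inactivated enzyme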
# Target sequence (P55789 whole entry, looked up): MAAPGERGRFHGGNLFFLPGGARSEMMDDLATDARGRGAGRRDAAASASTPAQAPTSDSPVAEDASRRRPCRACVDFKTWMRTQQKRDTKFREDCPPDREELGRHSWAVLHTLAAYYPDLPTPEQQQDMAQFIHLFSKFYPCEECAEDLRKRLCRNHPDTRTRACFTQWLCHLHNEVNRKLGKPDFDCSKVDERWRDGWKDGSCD
# B2AR ag – agonists of human beta-2 adrenergic receptor inducing internalization | Am2.2-beta2AR cells, FAP receptor internalization, flow cytometry; reference of the scale not given here | response, % (no concentration beside the values) | 340,000 compounds, 0.43% hits | AID 504454;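 active = response above a set limit, near 3 SD of response in nonfluorescent compounds, cut at about 42% in these data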;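 also: stock transfer was 100 nL into about 11 µL; a reference agonist was the positive control; negative values mostly stem from fluorescent compounds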
# Target sequence (P07550 whole entry, looked up): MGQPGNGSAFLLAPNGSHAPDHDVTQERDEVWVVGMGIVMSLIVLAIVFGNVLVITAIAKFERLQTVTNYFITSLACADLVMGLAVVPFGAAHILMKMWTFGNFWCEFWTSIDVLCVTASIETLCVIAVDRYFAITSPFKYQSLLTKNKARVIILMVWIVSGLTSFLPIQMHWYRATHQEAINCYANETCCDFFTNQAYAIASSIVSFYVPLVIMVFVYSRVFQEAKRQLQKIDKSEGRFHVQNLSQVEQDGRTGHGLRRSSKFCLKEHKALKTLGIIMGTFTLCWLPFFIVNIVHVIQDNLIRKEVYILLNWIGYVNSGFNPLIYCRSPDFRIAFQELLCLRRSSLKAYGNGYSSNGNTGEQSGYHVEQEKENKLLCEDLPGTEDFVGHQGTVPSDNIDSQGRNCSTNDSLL
# FGF22 binding – shifts melting point of recombinant human FGF22; recombinant FGF22 thermal shift, SYPRO orange fluorescence; percent of sucrose octasulfate shift, DMSO zero; calls only at 9.99 µM; Q9HCT0; AID 651658; 340,000 compounds, 1.5% hits;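 active = melting point raised past a set limit in the mean and every replicate; three in four hits are not shown here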
# UCH37 DUB inh – blocks the human deubiquitinase UCH37. 330,000 compounds, 0.33% hits. purified proteasome/UCH37, Ub-AMC cleavage fluorescence. inhibition, % (concentration not given with the values). AID 588478;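 active = mean of two replicates above 20%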;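 also: 0% = compound-free wells with enzyme and 100% = wells lacking proteasome; stock transfer was 100 nL into about 20 µL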
# Target sequence (Q9Y5K5 whole entry, looked up): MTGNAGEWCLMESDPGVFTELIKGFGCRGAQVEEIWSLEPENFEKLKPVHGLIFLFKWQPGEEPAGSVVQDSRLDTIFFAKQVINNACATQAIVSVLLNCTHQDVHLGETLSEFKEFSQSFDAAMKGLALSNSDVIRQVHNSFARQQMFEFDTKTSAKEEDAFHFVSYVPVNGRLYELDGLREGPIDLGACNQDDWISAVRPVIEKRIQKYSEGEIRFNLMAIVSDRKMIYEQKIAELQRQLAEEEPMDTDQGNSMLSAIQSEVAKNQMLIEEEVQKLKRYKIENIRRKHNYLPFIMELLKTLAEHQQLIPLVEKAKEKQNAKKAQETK
#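 Material: Human UCH37 enzyme supplied as purified proteasome complex | Schedule: 30 min compound-proteasome preincubation then 25 min substrate reaction, room temperature | Detection: AMC fluorescence from Ub-AMC cleavage, excitation 355 nm, emission 460 nm | Benchmarks: Wells without proteasome as full block, compound-free enzyme plus substrate as uninhibited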
# Ecoli rRNA inh OD600 – further read-out of Ecoli rRNA inh, marked with its call; OD600 change, %; measured here: OD600 growth;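 optical density of the mix in the first replicate; 0 = DMSO median and -100 = no signal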
# Ecoli rRNA inh RFP – recorded beside Ecoli rRNA inh, whose call it bears; RFP signal change, %; measured here: RFP humanized mutant strains;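 first replicate; 0 = DMSO median and -100 = no signal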
# * hit, by the source's call; i = inactive; nt = not tested or not shown. Only part of the results is shown. The share of hits here may be higher or lower than overall.
SMILES,Ecoli rRNA inh,Ecoli rRNA inh OD600,Ecoli rRNA inh RFP,HNF4A DNA FP,E coli growth,ALR inh,B2AR ag,FGF22 binding,UCH37 DUB inh
CCOc1ccc2c(c1)-c1c(ssc1=S)C(C)(C)N2C(=O)CSC1=NCCS1,nt,nt,nt,-3.4,0.73,20,-9,nt,6.9
COc1ccccc1N1CCN(C(=O)C2CCCN(S(=O)(=O)c3ccc4c(c3)oc(=O)n4C)C2)CC1 (stereo not drawn),-21,-19,0.5,8.4,0.64,19,-10,i,2.2
CCCn1c(CN2CCCCC2C)nc2c1c(=O)n(C)c(=O)n2C (stereo not drawn),5,3,-1.2,-1.8,0.76,-10,-16,i,-0.8
COc1ccccc1CC(=O)Nc1ccc(S(=O)(=O)N2CCN(C)CC2)cc1,17,16,3.2,-1.2,0.69,-3,-5,i,4.3
O=C1c2ccccc2NC(c2cccc(F)c2)N1Cc1ccco1 (stereo not drawn),-33*,-13*,-3.4*,-0.8,0.67,-1,-13,i,-320
COc1cc(C)c(NC(=S)Nc2ccc(Cl)c(Cl)c2)cc1OC,-28*,-6.0*,12*,0.8,0.62,9,14,i,2.0
CCOc1ccc(S(=O)(=O)N2CCN(C(=O)c3oc4ccc(OC)cc4c3C)CC2)cc1,-4,-7,3.5,-0.5,0.65,nt,4,i,2.3
C=CCNC(=O)NC(=O)COC(=O)CC(NC(N)=O)c1ccc(Cl)cc1 (stereo not drawn),nt,nt,nt,2.2,0.68,1,-8,nt,1.5
COC(=O)c1ccccc1NC(=O)c1cccc(COc2ccccc2Cl)c1,-8,6,0.8,-1.9,0.73,-10,0,nt,3.5
CSCCC(NC(=O)COc1ccccc1)C(=O)NCC(C)(C)N1CCOCC1 (stereo not drawn),5,13,-2.9,2.7,nt,nt,nt,i,nt
O=C(Cc1ccc2c(c1)OCCO2)N1CCN(c2ccccc2)CC1,-4,-7,7.9,0.7,0.7,17,7,i,2.1
Cc1ccc(C(C(=O)NCC2CCCO2)N(C(=O)c2snc(C(N)=O)c2N)c2ccc(C(C)C)cc2)o1 (stereo not drawn),-5,0,-3.5,-2.5,0.63,nt,1,i,-28
CCOc1ccc(NS(=O)(=O)c2ccc(C(=O)N(C)CC(=O)Nc3ccccc3Br)cc2)cc1,-11,-18,7.3,-2.3,0.67,nt,2,i,3.8
CCOc1cccc2sc(NC(=O)CC)nc12,-19*,-14*,5.0*,5.2,0.66,3,-1,i,3.3
COc1cc(C(C)=O)ccc1OCC(O)CN1CCN(c2ccc(C)cc2C)CC1 (stereo not drawn),-18,-20,-0.7,1.7,0.63,26,0,i,1.5

# Given with values under each structure: entries from further up.
# Each structure is followed by: Ecoli rRNA inh, Ecoli rRNA inh OD600, Ecoli rRNA inh RFP, HNF4A DNA FP, E coli growth, ALR inh, B2AR ag, FGF22 binding, UCH37 DUB inh
- COc1cc(C)c(NC(=S)Nc2ccc(Cl)c(Cl)c2)cc1OC
  -28*, -6.0*, 12*, 0.8, 0.62, 9, 14, i, 2.0
- CCOc1ccc(S(=O)(=O)N2CCN(C(=O)c3oc4ccc(OC)cc4c3C)CC2)cc1
  -4, -7, 3.5, -0.5, 0.65, nt, 4, i, 2.3

# The list continues:
SMILES,Ecoli rRNA inh,Ecoli rRNA inh OD600,Ecoli rRNA inh RFP,HNF4A DNA FP,E coli growth,ALR inh,B2AR ag,FGF22 binding,UCH37 DUB inh
NS(=O)(=O)c1ccc(CCNCc2ccccc2OCc2ccc(Cl)cc2)cc1,-14,-18,7.3,0.3,0.66,-25,23,i,5.5
Cc1cc(C)cc(C(=O)NC(=S)Nc2ccc(-c3cc4ccccc4oc3=O)cc2)c1,nt,nt,nt,3.1,0.73,10,-3,nt,7.3
O=c1[nH]c2ccccc2n1C1=CCCC1,nt,nt,nt,1.3,0.74,4,-4,nt,1.6
COc1ccc(C2CC(c3ccco3)n3ncnc3N2)cc1 (stereo not drawn),-5,-9,0.0,-1.0,0.77,10,0,i,3.8
Cc1c(C(=O)N2CCCCC2C)sc2ncnc(N3CCc4ccccc4C3)c12 (stereo not drawn),-7,-9,0.1,-0.1,0.69,-16,11,i,1.0
CCc1c(C)sc(NC(=O)c2cc(C)no2)c1C#N,2,-11,0.5,0.7,0.72,93*,7,i,15
Cc1cc(C)n2nc(SCCC(=O)NCCc3ccccc3)nc2n1,nt,nt,nt,2.5,0.64,-3,-11,nt,4.3
C/C(=N/O)c1c(O)c(C)c(-c2ccccc2)n(-c2ccccc2)c1=O,nt,nt,nt,1.4,nt,-3,-2,nt,nt
COc1ccc(NC(=O)COC(=O)COc2cccc(Br)c2)cc1OC,4,-4,-1.8,-0.8,0.7,3,-3,i,4.2
N#Cc1cc2c(nc1SCC(=O)Nc1sc3c(c1C#N)CCC3)CCCCC2,nt,nt,nt,-0.4,0.79,-9,-4,nt,-3.5
CCS(=O)(=O)c1ccc(O)c(NC(=O)c2cc(OC)c(OC)c(OC)c2)c1,nt,nt,nt,-2.6,0.76,0,4,nt,5.0
CC(C)OC(=O)Nc1ccc2c(c1)N(C(=O)N1CCN(C)CC1)c1ccccc1CC2,0,3,1.6,0.8,0.72,-10,-7,i,-0.6
CCOC(=O)c1nnn(-c2nonc2N)c1CN1CCCCCC1,nt,nt,nt,1.0,0.66,-13,-6,nt,0.5
COc1cccc(NC(=O)COc2cc(C)cc3oc(=O)cc(C)c23)c1,9,14,0.9,1.2,0.66,-25,-9,i,-11
CCCCCCn1c(NCC)nc2c1c(=O)[nH]c(=O)n2C,nt,nt,nt,2.6,0.68,2,0,nt,1.2
COc1ccc(S(=O)(=O)N(CCC#N)Cc2ccco2)cc1OC,-3,9,-0.4,0.8,0.64,-2,0,i,0.5
CN(C)/C=C(\C#N)C(=O)N/N=C/c1ccccc1,-1,1,-3.8,4.2,nt,-4,-15,i,nt
CCc1cc(-c2n[nH]c(C)c2-c2nc(C)cs2)c(O)cc1OC,-55,-50,-8.6,-1.5,0.67,39,2,i,-0.9
CCc1ccc(-c2cc3c(=O)n(CC(=O)N4CCCC4)nc(C)n3n2)cc1,4,-5,-2.1,9.0,0.66,6,-6,i,4.8
CC(=O)Oc1ccc(-c2cccc(C(=O)NCC(=O)O)c2)cc1,nt,nt,nt,1.2,0.67,54,5,nt,-1.1
CCC(=O)Nc1ccc(C(=O)CN2C(=O)NC3(CCCCCC3)C2=O)cc1,nt,nt,nt,8.8,0.7,-3,1,i,2.4
COc1ccc(OCC(=O)OCCN2C(=O)c3ccccc3C2=O)cc1,nt,nt,nt,3.6,0.72,-1,-1,nt,4.9
O=C(NNc1cc(Cl)cc(Cl)c1)C1CCC1,-3,-8,0.4,-4.8,0.65,0,3,i,3.8
CC(/C=N/NC(=O)CSc1n[nH]c(=O)[nH]c1=O)=C\c1ccccc1,-1,-5,-5.6,2.5,nt,-4,7,i,nt
O=C(N/N=C\c1cccc([N+](=O)[O-])c1O)C1COc2ccccc2O1 (stereo not drawn),nt,nt,nt,-1.2,nt,34,4,nt,nt
COC(=O)[C@H]1C[C@H](OC(=O)NC2CCCC2)[C@@]2(O)CN(S(=O)(=O)c3ccc(C)cc3)CC2[C@H]1C(=O)OC (stereo partly drawn),11,3,3.8,-2.6,nt,nt,nt,i,nt
COc1ccc(S[C@@H](CCN2CC[C@H](O)CCC2=O)c2ccccc2)cc1,-14,-8,7.1,-0.2,nt,7,-8,i,0.2
O=S(=O)(NCc1ccccc1Br)c1ccccc1Br,-28,-46,-8.1,-2.5,0.71,-4,2,i,-0.1
COc1cc(CN2CCN(C(=O)CC(C)C)CC2)cc(OC)c1OC,nt,nt,nt,-0.2,0.7,-2,-4,nt,1.9
O=C(C1=C[C@H](c2csc3ccccc23)C[C@H](OCc2ccc(CO)cc2)O1)N1CCOCC1,-35,-72,-1.4,3.0,nt,-17,-14,i,0.0
CCN1CCN(Cc2cc(=O)oc3cc(C)cc(C)c23)CC1,nt,nt,nt,1.4,0.65,-2,3,nt,5.5
COc1ccc(C2(CNC(=O)c3ccc(OCC(C)C)cc3)CCOCC2)cc1,nt,nt,nt,2.9,0.71,-29,-18,nt,6.4
CCCCOc1ccc(OC(=O)c2cccnc2)cc1,nt,nt,nt,-0.6,0.7,nt,-4,nt,1.9
Cc1cccc(NC(=O)CSc2nc3[nH]ncc3c(=O)[nH]2)c1C,10,13,1.5,3.9,nt,-1,-6,i,nt
Cc1cc(C)n(CC(=O)n2nc(C)cc2C)n1,nt,nt,nt,3.0,0.68,6,-5,nt,3.1
COC(=O)[C@@]1(Cc2ccc(F)cc2)[C@H]2c3cc(C(=O)N4CCCC4)n(Cc4ccc(C)o4)c3C[C@H]2CN1C(=O)c1ccccc1,8,3,3.8,1.3,nt,nt,nt,i,nt
CCN1CCCC1CN(Cc1cc2ccc(C)cc2[nH]c1=O)C(=S)Nc1ccc(F)cc1 (stereo not drawn),2,0,3.9,0.1,0.66,-3,-31,i,2.9
O=C1CN(C(=O)COC(=O)/C=C/c2ccc(F)cc2)c2ccccc2N1,11,8,1.1,0.8,0.63,-2,3,i,-1.7
Oc1cccc(-c2nc3ccc4ccccc4c3c3c2CCC3)c1,nt,nt,nt,-5.5,0.75,10,9,nt,-1.3
CCCCCN1CC(O)=C(c2nc(-c3ccc(Cl)cc3)cs2)C1=N,nt,nt,nt,-9.6,0.73,-10,10,nt,2.5
O=C(O)c1ccc(N/N=C/c2ccc(-c3cccc(Cl)c3)o2)cc1,-39*,-22*,-4.7*,0.6,nt,nt,14,i,nt

# Molecules from the list above that contain a COOH group (2):
SMILES,Ecoli rRNA inh,Ecoli rRNA inh OD600,Ecoli rRNA inh RFP,HNF4A DNA FP,E coli growth,ALR inh,B2AR ag,FGF22 binding,UCH37 DUB inh
CC(=O)Oc1ccc(-c2cccc(C(=O)NCC(=O)O)c2)cc1,nt,nt,nt,1.2,0.67,54,5,nt,-1.1
O=C(O)c1ccc(N/N=C/c2ccc(-c3cccc(Cl)c3)o2)cc1,-39*,-22*,-4.7*,0.6,nt,nt,14,i,nt

# An excerpt of these results, with values under each structure:
# Order of values: Ecoli rRNA inh, Ecoli rRNA inh OD600, Ecoli rRNA inh RFP, HNF4A DNA FP, E coli growth, ALR inh, B2AR ag, FGF22 binding, UCH37 DUB inh
- COc1ccc(C2CC(c3ccco3)n3ncnc3N2)cc1 (stereo not drawn)
 : -5, -9, 0.0, -1.0, 0.77, 10, 0, i, 3.8
- Cc1c(C(=O)N2CCCCC2C)sc2ncnc(N3CCc4ccccc4C3)c12 (stereo not drawn)
 : -7, -9, 0.1, -0.1, 0.69, -16, 11, i, 1.0
- CCc1c(C)sc(NC(=O)c2cc(C)no2)c1C#N
 : 2, -11, 0.5, 0.7, 0.72, 93*, 7, i, 15
- Cc1cc(C)n2nc(SCCC(=O)NCCc3ccccc3)nc2n1
 : nt, nt, nt, 2.5, 0.64, -3, -11, nt, 4.3
- C/C(=N/O)c1c(O)c(C)c(-c2ccccc2)n(-c2ccccc2)c1=O
 : nt, nt, nt, 1.4, nt, -3, -2, nt, nt
- COc1ccc(NC(=O)COC(=O)COc2cccc(Br)c2)cc1OC
 : 4, -4, -1.8, -0.8, 0.7, 3, -3, i, 4.2
